Menin MLL FP FL = qHTS Assay for Inhibitors Targeting the Menin-MLL Interaction in MLL Related Leukemias: Competition With Fluorescein Labeled MLL-derived Peptide. FP activity change, % at 61.4 µM. AID 1766, 2009. Fluorescence polarization, fluorescein-MLL peptide displacement from menin. 290,000 tested, under 10 active; inconclusive = falling polarisation curve, or a change in total fluorescence; inactive = total fluorescence flat and polarisation flat or rising; no compound was filed as active; the % refers to the polarisation; negative = inhibition;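 also: % of control where 0% means no effect; inhibitors lower the polarisation; unlabelled MLL peptide was the positive control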
gsp antagonist = qHTS for Antagonists of gsp, the Etiologic Mutation Responsible for Fibrous Dysplasia/McCune-Albright Syndrome: qHTS | actives 0.4% (n = 340,000) | Potency, µM (series often up to 76.9 µM), for inactives: at the top dose activity change, negative = inhibition, usual class: inhibitors | gsp-mutant cells, cAMP HTRF, 30 min; control for the full effect not named in the record; active = falling curve of any shape with a large fitted effect; inconclusive = falling curve, mostly with a smaller effect; inactive = flat or rising curve; cell line not stated here;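 also: intracellular cAMP measured with PDE inhibitor Ro 20-1724 present during compound exposure; potency is read from the fitted curve at half-maximal effect; % is scaled to controls: 0 for no effect and ±100 for the full control effect; nearly all actives have a fitted effect of over 65% in size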
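Cells in G418 medium, seeded 16-24 h, 37C; buffer exchange to DPBS + 1 mM CaCl2, 0.5 mM MgCl2, 0.05% BSA; cpds in DMSO + […] (300 uM stock), 30 min 37C; HTRF cAMP detection.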
Sfp PPTase inh = qHTS Assay for Inhibitors of Bacillus subtilis Sfp phosphopantetheinyl transferase (PPTase); 4'-phosphopantetheinyl transferase ffp (Bacillus subtilis), Q9F4F7; Biochemical Sfp PPTase activity, qHTS; Potency, µM, for the others: max response, negative = inhibition, hits mostly inhibitors; actives 3.5% (n = 310,000); AID 1490, 2009; active = well fitted inhibition curve with a large enough effect; inconclusive = small, poorly fitted or top-dose-only effect, or another doubt; inactive = no such curve, though single readings can be large or run the other way;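 also: the enzyme is Sfp with the accession as filed and its product quenches rhodamine fluorescence; potency is read from the fitted curve at half-maximal effect; 0% = enzyme reaction without inhibitor and -100% = no enzyme wells; top concentration of the series not given in the record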
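After 15 min at room temperature with compound, 15 nM Sfp received 5 uM rhodamine-CoA plus 12.5 uM BHQ-2-ybbR (50 mM Hepes pH 7.6, 10 mM MgCl2). Rate came from the fluorescence difference over 30 min, ex 525/em 598 nm.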
TRPV1 potentiator = HTS Assay for Compounds that Act as Potentiators of the Vanilloid Receptor 1; actives 0.02% (n = 320,000); TRPV1-expressing cells, Fluo-8 calcium influx, capsaicin EC20 potentiation; host cell line not named in the record; control for the full effect not named in the record; Transient receptor potential cation channel subfamily V member 1 (Homo sapiens), Q8NER1; AID 540277, 2011; potentiation, % at 8.33 µM; active means potentiation above 80%; inconclusive means 30% to 80%; inactive means below 30%; also: 0% is about no effect
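TRPV1-expressing cells were cultured overnight at 35.5C and loaded with Fluo-8 calcium dye for 40 to 90 min at room temperature. After a 10 s baseline, compound was added and calcium influx was read kinetically for 3 min (ex 480/em 520 nm).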
ClpP mod = qHTS Assay for Activators of ClpP; ATP-dependent Clp protease proteolytic subunit (Bacillus subtilis (strain 168)), P80244; purified B. subtilis ClpP, FRET peptide cleavage, 20 min; Potency, µM (doses to about 57.5 µM), inactives show at the top dose activity change, negative = active; actives 1.9% (n = 340,000); AID 651965, 2013; active = well fitted falling curve with a large enough effect; inconclusive = small, poorly fitted or top-dose-only effect; inactive = no such curve, though single readings can be large or run the other way; also: potency is read from the fitted curve at half-maximal effect; the source files actives as falling curves though it sought activators and does not explain the sign; nearly all actives have a fitted effect of over 65% in size; many hits overshoot -100%
Target sequence (P80244 whole entry, looked up): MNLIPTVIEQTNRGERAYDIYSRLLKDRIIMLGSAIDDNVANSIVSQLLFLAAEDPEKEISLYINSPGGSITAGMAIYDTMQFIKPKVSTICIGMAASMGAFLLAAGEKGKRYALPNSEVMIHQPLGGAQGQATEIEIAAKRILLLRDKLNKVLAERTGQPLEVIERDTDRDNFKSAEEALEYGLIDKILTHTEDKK
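Purified B. subtilis ClpP, 10 microg/mL final in Tris/HCl pH8 with KCl, BSA, glycerol and Tween-20, cleaved an Abz/nitrotyrosine-quenched decapeptide. Fluorescence (ex 320, em 430) was read at 0 and 20 min at room temperature. Delta was normalized to 5.8 microM ADEP and DMSO/no-enzyme controls.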
D2 PAM = Beta-Arrestin HTS for Positive Allosteric Modulators of the Human D2 Dopamine Receptor: Potentiators | D(2) dopamine receptor (Homo sapiens), P14416 | potentiation, % (concentration not given with the values) | DiscoveRx D2 beta-arrestin cells, luminescence, 90 min; 100% = 57 uM dopamine signal | actives 0.23% (n = 360,000); active = potentiation of 50% or more; inconclusive = 30% to 50%; inactive = 30% or less;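 also: compound concentration not given in the record; tested on top of an EC20 dose of dopamine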
Target sequence (P14416 whole entry, looked up): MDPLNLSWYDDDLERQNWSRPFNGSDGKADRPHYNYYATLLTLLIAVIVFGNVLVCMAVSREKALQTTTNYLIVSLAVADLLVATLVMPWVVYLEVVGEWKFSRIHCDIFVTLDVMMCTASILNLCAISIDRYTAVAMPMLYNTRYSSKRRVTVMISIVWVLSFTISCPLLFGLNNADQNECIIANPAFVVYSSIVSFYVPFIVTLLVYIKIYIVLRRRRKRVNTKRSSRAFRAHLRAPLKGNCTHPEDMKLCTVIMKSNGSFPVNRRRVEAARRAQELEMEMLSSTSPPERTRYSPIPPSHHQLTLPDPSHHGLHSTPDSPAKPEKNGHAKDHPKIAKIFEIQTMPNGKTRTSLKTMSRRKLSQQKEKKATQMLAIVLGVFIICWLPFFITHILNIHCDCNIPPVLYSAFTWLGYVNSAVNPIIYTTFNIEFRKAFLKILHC
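PathHunter beta-arrestin assay in DiscoveRx D2 cells. Compounds were added with an EC20 of dopamine (50 nM final) for 90 min at 37 deg C. Luminescence was read 1 h after detection reagent, with 57 uM dopamine as the EC100 control.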
gsp agonist = qHTS for Agonist of gsp, the Etiologic Mutation Responsible for Fibrous Dysplasia/McCune-Albright Syndrome: qHTS; gsp mutant cells, cAMP HTRF, 30 min; control for the full effect not named in the record; actives 0.13% (n = 340,000); Potency, µM (doses to about 76.9 µM), without a hit: at the highest dose activation (cAMP increase), usual class: activators; active = well fitted activation curve with a large enough effect; inconclusive = small, poorly fitted or top-dose-only effect, or another doubt; inactive = no such curve, though single readings can be large or run the other way; cell line not stated here;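 also: phosphodiesterase inhibitor Ro 20-1724 added with compounds to block cAMP breakdown; potency is read from the fitted curve at half-maximal effect; nearly all actives have a fitted effect of over 60% in size; about a fifth of the inactives were tested at one dose only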
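Cells in DMEM/10% FBS with G418 were pretreated with compounds in DMSO plus […] (300 uM stock) for 30 min at 37C. cAMP was measured by HTRF (cAMP-d2 plus anti-cAMP antibody-K) after 30 min at room temperature.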
* hit, by the source's call; u = inconclusive; x = not tested or not shown; & = joins results of further samples; [ ] = dose if it differs, or a comment.

SMILES | Menin MLL FP FL | gsp antagonist | Sfp PPTase inh | TRPV1 potentiator | ClpP mod | D2 PAM | gsp agonist
O=C(OCC(=O)c1c[nH]c2ccccc12)c1cc2ccccc2cc1O | 8.1 | -11% | 10% | -3 | 20µM* | 9 | 7%[15.4 µM]
Cn1c2c(c(=O)n(C)c1=O)CN(CCc1ccccc1)CN2 | 3.1 | 4% | 17% | 15 | -1.3% | -4 | -19%
Cc1ccc(CN2CCN(CC(C)C)C(CCO)C2)s1 (stereo unspecified) | 4.4 | 10% | -4% | -3 | x | -14 | -2%[15.4 µM]
CC(C)Cn1c(SCC(=O)Nc2ccc3[nH]c(=O)[nH]c3c2)nc2ccccc2c1=O | x | -7% | x | -5 | x | 3 | -26%[15.4 µM]
CCc1ccccc1NC(=O)c1cc(C)no1 | 0.4 | 14% | 8% | 16 | -0.5% | 4 | -6%
Cc1cccc(C(=O)Nc2ccnc(-c3cccnc3)n2)c1 | 2.4 | -1% | 16% | -1 | -0.8% | 0 | -18%
COc1cccc(C(=O)OCCN2C(=O)c3ccccc3C2=O)c1OC | -2.1 | -20% | 0% | 23 | -0.7% | -9 | 10%
CCOc1cc(C(=O)NCc2ccco2)cc(OCC)c1OCC | -3.0 | -6% | 14% | -10 | 0.1% | -3 | -118%[inhibitor]
CCCOc1ccc(Cc2c(O)nc(N)[nH]c2=O)cc1C | -3.1 | -12% | 11% | -2 | 2.8% | -7 | -2%
Cc1cccc(N2C(=O)C3C4C=CC(C5CC45)C3C2=O)n1 (stereo unspecified) | 1.7 | 22% | 12% | -9 | 0.6% | 0 | -6%[15.4 µM]
O=C(CC1S/C(=N\S(=O)(=O)c2ccccc2)N(c2ccccc2)C1=O)Nc1ccc(F)cc1 (stereo unspecified) | 5.7 | -12% | 12% | 0 | -28% | -15 | 24%
O=C(CCl)N=c1sccn1Cc1ccccc1Cl | 4.0 | -6% | -10% | 4 | x | -3 | 0%[15.4 µM]
Cc1ccc(NC(=O)c2ccccc2Br)cc1S(=O)(=O)N(C)C | -0.9 | -2% | 3% | 2 | x | 0 | -9%[15.4 µM]
O=C(NCCCN1CCCC1=O)c1ccccc1OCc1ccc(Cl)cc1Cl | x | 2% | x | x | -11% | -22 | -13%[15.4 µM]
OCCCc1nc2ccccc2n1CCOc1ccccc1 | -0.6 | 6% | 3% | -24 | 0.1% | -4 | 4%
CC(C)(C)c1nnc(NC(=O)C2CCN(C(=O)c3ccco3)CC2)s1 | -3.9 | 1% | 7% | 4 | x | 1 | 11%[15.4 µM]
O=C1Nc2ccccc2/C1=C/c1ccnc2ccccc12 | 1.5 | 6% | -6% | -3 | 0.7% | -4 | 28%
CCOC(=O)CCc1c(C)nc2cc(-c3ccccc3OC)[nH]n2c1=O | -0.4 | -12% | 13% | u | 5.0% | -7 | -9%
O=[N+]([O-])c1ccc(N2CCC(=NOCc3ccc(Cl)cc3)CC2)cc1 | 2.9 | -1% | 13% | -3 | -1.5% | 2 | u
COc1cc2nc(=S)n3[nH]c(COc4ccccc4C)nc3c2cc1OC | -1.3 | -31% | 3% | 19 | -0.3% | 1 | 15%
CCOc1ccc(Cn2nnc(C(=O)Nc3cc(C)cc(C)c3)c2N)cc1 | -0.5 | 10% | 12% | -14 | -0.8% | 0 | -17%
Cc1cccc(C(=O)NNC(=O)c2ccc(Cl)cc2)c1O | 2.8 | -1% | 19% | -9 | 0.5% | 16 | -16%
O=c1oc2cc(O)ccc2c2oc3cc(O)ccc3c12 | 0.5&-1.4 | -3% | -19%&-12% | 4 | 3.9% | 9 | x
Cc1cc(C)c(OCCNCc2ccccc2)c(C)c1 | -5.2 | 10% | -13% | 9 | 0.8% | -28 | 7%[15.4 µM]
CC1=NN(c2nc3ccccc3[nH]2)C(=O)/C1=C/N(C)C | -2.4 | 5% | 18% | 10 | 3.0% | -10 | -24%
Cc1[nH]n(-c2ccccc2)c(=O)c1CCOC(=O)c1cccc(C(F)(F)F)c1 | 1.8 | 5% | 10% | -8 | 1.5% | -12 | -1%
Cc1ccc2nc(NC(=O)C3=NN(c4ccccc4)C(=O)CC3)sc2c1 | 0.5 | u | 1% | 12 | -3.1% | -4 | -3%
Cc1ccc(NC(=O)Cn2cc(S(=O)(=O)c3ccccc3)c(=O)c3cc(F)ccc32)cc1 | 1.0 | 9% | 3% | 5 | -2.2% | -12 | u
Cn1c(=O)n(Cc2ccc(F)cc2)c(=O)c2c1nc1n2CCCN1C1CCCCC1 | -0.9 | 8% | -18% | -11 | -1.9% | -2 | 14%
Cc1cccc(NC(=O)c2ccc(F)c(S(=O)(=O)N3CCC4(CC3)OCCO4)c2)c1 | x | -9% | 17% | 18 | -0.3%&0.6% | -8 | -16%
COCCN=c1scc(-c2ccccc2)n1/N=C/c1c[nH]c2ccccc12 | 5.1 | 0% | -12% | -5 | -0.9% | -6 | 7%
Cc1ccccc1SCC(=O)N/N=C/c1ccc(F)cc1 | 4.2 | -3% | -3% | 9 | -0.4% | -11 | 0%
CC1CN(C(=O)Cn2cc(S(=O)(=O)CC(=O)N(C)c3ccccc3)c3ccccc32)CC(C)O1 (stereo unspecified) | x | 7% | 13% | 2 | 0.8% | -8 | 10%
CC(C)C(NC(=O)C1CCC(C(C)(C)C)CC1)C(=O)NCc1cccnc1 (stereo unspecified) | 0.7 | -5% | 15% | 0 | -1.1% | -2 | 9%
CC[C@@H](C)[C@H](CN[C@H](CNC)C(C)C)NC[C@@H](C)c1ccc(CC(C)C)cc1 | 3.3 | 21% | 19% | -15 | -1.1% | -8 | u
O=C1C2CCCN2C(c2ccc(F)cc2)N1c1ccc(Cl)cc1 (stereo unspecified) | 5.8 | 5% | -11% | -25 | -3.0% | -4 | -5%
O=C(Nc1ccc2nsnc2c1)N1CCCCC1 | -1.1 | 7% | 15% | -12 | u | -12 | 16%
Cc1cc(NC(=O)c2cccc3c2C(=O)N(C2CCCCC2)C3)ccc1Br | x | 12% | 7% | -3 | -2.1% | -11 | 10%
CCOc1cc(NC(=S)Nc2cccc(C)c2)c(OCC)cc1NC(=O)CC(C)C | 2.5 | u | 12% | -14 | -1.4% | -4 | u
O=C(CCNS(=O)(=O)c1cccc(Cl)c1)OCC(=O)N1CCN(C(=O)c2ccco2)CC1 | x | -3% | x | 18 | -1.1% | -20 | -2%[15.4 µM]
CC(C)(C)[C@H]1C=C(C(=O)N2CCN(Cc3ccccc3)CC2)O[C@@H](OCc2ccc(CO)cc2)C1 | -3.7 | -2% | 3% | -6 | -2.9% | -16 | 15%
COc1cccc2cc(C(C)N(CCCN3CCOCC3)C(=S)Nc3cc(C)cc(C)c3)oc12 (stereo unspecified) | -0.9 | u | 11% | 24 | x | -19 | -1%[15.4 µM]
COc1ccccc1NC(CC(=O)c1ccccc1)C(=O)OCC(=O)c1ccc(C)cc1 (stereo unspecified) | 3.9 | 8% | 0% | 11 | -2.8% | -7 | -17%
CCOC(=O)N1C2=NC(C(=O)OC)=C(C(=O)OC)[C@@H]3N(C)c4ccc(OC)cc4[C@]23C[C@H]1C(=O)OC | -3.9[11.7 µM] | -5% | 4% | x | 1.3% | -10 | -34%[inhibitor]
CC(C)(C)OC(=O)N[C@@H](Cc1ccccc1)C(=O)NCC1CCC(C(=O)N[C@@H](CC(=O)O)C(=O)O)CC1 (stereo partly specified) | 0.7 | 5% | 9% | 27 | -2.3% | -7 | 32%
CCOC(=O)C1CCCN(c2nc3ccccc3nc2C(C#N)C(=O)OCC)C1 (stereo unspecified) | 11 | -16% | -6% | -14 | 5.6% | -22 | 14%
Cc1[nH]c2ccc(-c3n[nH]c(=S)n3-c3ccc(Br)cc3)cc2c1C | -2.3 | -12% | 13% | 0 | x | -8 | 4%
CC1C(=O)C(C)C(c2ccc3c(c2)OCO3)NC1c1ccc2c(c1)OCO2 (stereo unspecified) | 4.7 | 1% | 6% | -5 | 2.0% | -17 | 20%
CN(Cc1nc(Cc2ccccc2F)no1)[C@@H]1CS(=O)(=O)C[C@H]1O | -0.3 | -4% | 9% | 6 | -0.7% | -2 | 10%
CCOC(=O)Cn1ccc(NC(=O)c2ccc3c(c2)OCO3)n1 | -4.7 | -9% | 13% | -2 | -1.8% | -4 | -21%
The listing continues:
SMILES | Menin MLL FP FL | gsp antagonist | Sfp PPTase inh | TRPV1 potentiator | ClpP mod | D2 PAM | gsp agonist
O=C(Cc1ccccc1)NNC1CC(=O)N(c2ccc(Oc3ccccc3)cc2)C1=O (stereo unspecified) | 11 | -1% | 17% | 18 | x | -3 | -5%
Cc1ccc([C@H]2N[C@]3(CCCN(Cc4ccco4)C3=O)[C@H]3C(=O)N(C)C(=O)[C@@H]23)cc1 | x | x | x | x | -6.1% | -3 | -63%[inhibitor]
COCc1ccc(-c2c(-c3ccccc3OC)sc3cc4c(cc23)OCO4)cc1 | x | -19% | x | 6 | u | -6 | x
O=C(NCC(=O)N1CCN(Cc2ccccc2)CC1)c1cc(Cl)cc([N+](=O)[O-])c1 | x | 9% | x | x | 0.7% | -1 | -10%
Cc1ccc(N/C(=N/S(=O)(=O)c2cccs2)c2ccccc2)c(C)c1 | 1.0 | 4% | 4% | 12 | -17% | 1 | 2%
COc1cccc(CNC(=O)COC(=O)c2c(C)nn(-c3ccccc3)c2Cl)c1 | x | -23% | x | -6 | 0.6% | -14 | -28%
